Screening results deposited in PubChem BioAssay by several laboratories.
YopH PTP inh = YopH tyrosine phosphatase inhibitors, primary screen, biochemical, fluorescence Ex485/Em525 | inhibition, %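 (about 10 µM by stock and volumes)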 | YopH tyrosine phosphatase [Yersinia enterocolitica] | actives 0.16% (n = 140,000);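 active = inhibition of 50% or more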;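 note: controls were vehicle for no effect and minimum signal wells for full effect; inactives centre near -20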
RecA splice inh = Mtb RecA intein splicing inhibitors, primary screen, biochemical, fluorescence, HTS; cell-free RecA intein splicing; inhibition, %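 (about 9 µM by stock and volumes)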; actives 0.75% (n = 290,000); in the data active = inhibition above about 30%; inconclusive = no clear call, values can overlap the other calls;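 note: 0% = vehicle wells and 100% = reference inhibitor control wells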
Target sequence (P9WHJ3 whole entry, looked up, canonical isoform): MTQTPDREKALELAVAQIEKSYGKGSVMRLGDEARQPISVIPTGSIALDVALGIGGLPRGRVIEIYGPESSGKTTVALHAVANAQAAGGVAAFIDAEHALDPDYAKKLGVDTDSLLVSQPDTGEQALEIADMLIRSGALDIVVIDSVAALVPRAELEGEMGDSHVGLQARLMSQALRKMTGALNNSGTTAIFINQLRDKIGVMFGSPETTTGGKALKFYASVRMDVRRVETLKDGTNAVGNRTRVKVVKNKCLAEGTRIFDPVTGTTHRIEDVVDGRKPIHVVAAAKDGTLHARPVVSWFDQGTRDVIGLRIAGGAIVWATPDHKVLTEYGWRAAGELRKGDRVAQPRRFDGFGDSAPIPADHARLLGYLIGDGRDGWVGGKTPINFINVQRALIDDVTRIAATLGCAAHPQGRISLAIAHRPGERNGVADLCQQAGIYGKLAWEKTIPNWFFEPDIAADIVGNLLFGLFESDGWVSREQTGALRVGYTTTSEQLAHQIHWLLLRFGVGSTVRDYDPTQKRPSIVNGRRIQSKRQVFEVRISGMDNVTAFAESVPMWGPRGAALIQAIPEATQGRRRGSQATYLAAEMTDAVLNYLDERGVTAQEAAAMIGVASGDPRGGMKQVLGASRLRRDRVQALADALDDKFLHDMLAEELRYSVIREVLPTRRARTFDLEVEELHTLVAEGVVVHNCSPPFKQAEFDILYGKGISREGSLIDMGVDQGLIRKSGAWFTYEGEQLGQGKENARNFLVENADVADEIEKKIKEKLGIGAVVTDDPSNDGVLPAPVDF
Arbovirus anti = antivirals against arbovirus infection, primary screen, cell-based, full library, 10K replicate subset; arbovirus infection cell-based antiviral screen; inhibition, % at 10 µM; actives 0.37% (n = 200,000);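 active = inhibition from about 30%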;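 note: bluetongue infection of BSR cells; cell survival read as ATP light after 72 h; 0% = infected wells without compound and 100% = uninfected wells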
Mtb growth = M. tuberculosis H37Rv growth inhibitors, H37Rv strain (AID 1626). actives 0.95% (n = 220,000). inhibition, % at 10 µM, or IC50 in µM where a hit was titrated. M. tuberculosis H37Rv growth inhibition; higher % means a stronger effect;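 active = confirmed in a dose series; inconclusive = inhibition above 80% but not taken into the dose series; inactive = below 80% or under 30% at every dose of the series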;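 note: bacteria incubated seven days before Alamar blue readout; 0% = bacteria only wells and 100% = bacteria with antibiotic wells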
Mtb bLac sens = beta-lactam sensitization of Mtb H37Rv, H37Rv. M. tuberculosis H37Rv growth with meropenem, percent inhibition; hits of this screen are not shown here. inhibition, % at 25 µM. actives 0.27% (n = 330,000);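 active = about 74% or more and at least 40 points above the plate without the antibiotic, then above 30% in a dose series; inconclusive = first-round hits that could not be retested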;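 note: growth measured after seven days incubation then overnight dye step; 0% = bacteria only wells and 100% = bacteria with antibiotic; twin plates without the antibiotic show which effects depend on it; some results filed as inactive read as strong as hits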
Arbovirus anti repeat = further read-out of Arbovirus anti, marked with its call; inhibition, %; measured here: 10K subset replicate screen; many hits read low in the repeat;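 first of two repeat runs on a subset; 0% = infected and 100% = uninfected wells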
Numbers without * were called inactive; ? = inconclusive; . = not tested or not shown. Only part of the results is shown. The share of hits here may be higher or lower than overall.

SMILES	YopH PTP inh	RecA splice inh	Arbovirus anti	Mtb growth	Mtb bLac sens	others
CC(C)(C)NC(=O)C(c1cccnc1)N(C(=O)c1ccc(Cl)nc1)C1CCCC1 (stereo not drawn)	.	-5.7	0	-13%	-6
CC1(C)CC(NC(=O)c2cccc(Cl)c2)CC(C)(C)N1	.	-3.1	.	.	-5
COc1ccc(CCNC(=O)COC(=O)/C=C/c2ccc(OCC#N)c(OC)c2)cc1	-12	-4.8	-7	-3%	4
Cc1cc(NC(=O)CSc2ccc3nnc(-c4cccs4)n3n2)no1	-47	0.1	9	0%	-4
Cc1ccc2c(c1)N(CC(=O)NC1CCCC1)C(=O)CO2	.	0.1	.	.	0
Cc1ccc(NS(=O)(=O)c2cc(C(=O)N3CCOCC3)ccc2C)cc1C	-17	0.7	5	2%	2
CC(=O)c1cccc(NC(=O)c2cc(C)nn2-c2ccccc2)c1	.	-1.0	.	.	-4
CCOC(=O)C1=C(C)C(c2ccccc2OC)NC(=O)N1 (stereo not drawn)	-21	1.9	-7	9%	0
CC(=O)Nc1cccc(C(=O)/C=C/c2ccc(Br)cc2)c1	-17	12	-33	6.5µM*	100
Cc1ccc(NC(=O)CCCCCNS(=O)(=O)c2ccc(C)cc2)cc1	-33	0.7	5	51%	73
CCOc1ccc(C(=O)Nc2c(C(=O)N3CCC(N4CCCCC4)CC3)oc3ccccc23)cc1	.	-4.5	.	.	9
COc1ccc(NC(=O)CSCCc2ccccn2)cc1OC	.	0.5	3	4%	2
CC(=O)c1cccc(Nc2cc(C)nc3ccc(C)cc23)c1	.	-2.9	.	9%	-12
Cc1c(Cl)cccc1NC(=O)CSc1nnc(C)n1CC1CCCO1 (stereo not drawn)	.	0.2	.	.	-7
O=C(Nc1cccnc1Cl)C1=NN(c2ccccc2)C(=O)CC1	.	2.3	.	.	4
O=C(Nc1ccccc1)c1ccccc1NC(=O)[C@H]1CCCC[C@H]1C(=O)O	.	-2.9	.	.	3
Cc1ccc2c(c1)N(CCC(=O)NCc1cccnc1)C(=O)CO2	-36	-4.7	8	-3%	8
Cc1cccc(/C=N\Nc2cn[nH]c(=O)c2Cl)c1	-32	1.4	4	2%	63
OC(c1ccccc1)(C1CCCCC1)C(CN1CCOCC1)c1ccccc1 (stereo not drawn)	.	5.9	.	.	-3
O=C(CC1(O)C(=O)Nc2ccc(Br)cc21)c1ccc2c(c1)OCO2 (stereo not drawn)	-33	1.5	5	-9%	8
CN(C)S(=O)(=O)N1CCCC(C(=O)c2ccc(C(F)(F)F)cc2)C1 (stereo not drawn)	.	0.0	-5	-8%	-7
O=C(CSc1nc(-c2ccc(F)cc2)cs1)Nc1ccccn1	-25	-0.8	-12	6%	5
O=C(NC1CCS(=O)(=O)C1)C12CC3CC(CC(C3)C1)C2 (stereo not drawn)	-48	.	-22	-6%	2
Cc1cc(C)nc(NS(=O)(=O)c2ccc(NC(=O)C3COc4ccccc4O3)cc2)n1 (stereo not drawn)	.	3.8	1	-5%	2

Reprinted at random: 5 compounds from above.
SMILES	YopH PTP inh	RecA splice inh	Arbovirus anti	Mtb growth	Mtb bLac sens	others
O=C(Nc1ccccc1)c1ccccc1NC(=O)[C@H]1CCCC[C@H]1C(=O)O	.	-2.9	.	.	3
O=C(Nc1cccnc1Cl)C1=NN(c2ccccc2)C(=O)CC1	.	2.3	.	.	4
O=C(NC1CCS(=O)(=O)C1)C12CC3CC(CC(C3)C1)C2 (stereo not drawn)	-48	.	-22	-6%	2
Cc1ccc2c(c1)N(CCC(=O)NCc1cccnc1)C(=O)CO2	-36	-4.7	8	-3%	8
CC(=O)c1cccc(Nc2cc(C)nc3ccc(C)cc23)c1	.	-2.9	.	9%	-12

(further entries)
SMILES	YopH PTP inh	RecA splice inh	Arbovirus anti	Mtb growth	Mtb bLac sens	others
Cc1cccc(NC(=O)N2CCN(Cc3ccccc3)CC2)c1	-14	0.3	-9	-13%	-17
O=CN1CCN(C(=O)c2ccc(-c3nc4ccccc4s3)s2)CC1	.	-1.7	-9	2%	-5
COc1ccc(Cc2nc3ccc(C(=O)NCC4COCCO4)cc3o2)cc1OC (stereo not drawn)	.	0.8	.	.	-1
COC(=O)c1ccc(NC(=O)CSc2nc(=O)n3cccc(C)c3n2)cc1	.	-1.1	.	.	-7
Cc1ccc(N(CC(=O)N2CCCC2)S(C)(=O)=O)cc1C	.	1.5	.	.	-5
O=C(Nc1ccc(CN2CCOCC2)cc1)c1cc(Cl)ccc1Cl	.	0.1	.	.	3
O=C1C=C(N2CCOCC2)C2(CCCCC2)O1	.	1.3	1	-5%	-5
COc1ccccc1NC(=O)NC1(C(=O)N2CCOCC2)CCCCC1	.	-0.8	.	.	-7
COc1ccc(-c2csc3nc(-c4ccccc4F)oc(=O)c23)cc1	.	-17	.	8%	64
COc1ccc(NC(=O)c2ccccc2NS(=O)(=O)c2ccc(CNC(C)=O)cc2)c(OC)c1	.	-0.2	.	.	-2
COCc1nnc(NC(=O)c2ccc(S(=O)(=O)N3CCCC3)cc2)o1	.	-2.3	.	.	-4
c1cncc(-c2nn3cnnc3s2)c1	2	-1.6	12	7%	-14
Cc1cccc(SCc2noc(C(=O)NCC3CCCO3)c2C(=O)O)c1 (stereo not drawn)	4	0.9	9	-22%	-1
CCC(C)N=C1SCC(C)(/C=N/O)S1 (stereo not drawn)	0	1.8	9	4%	1
COc1ccccc1NC(=O)C(C(C)C)N1C(=O)c2ccccc2C1=O (stereo not drawn)	.	-4.3	.	.	-1
CCOCCn1c(SCCc2ccccc2)nc2c1c(=O)[nH]c(=O)n2C	-8	1.0	5	3%	4	Arbovirus anti repeat=-4
Cc1c(C(=O)NN)[nH]c2ccc([N+](=O)[O-])cc12	.	-0.7	.	-3%	-12
CC1=CC2=NC(=O)CC(C)(C(=O)N(CC(=O)NC(C)(C)C)Cc3ccccc3)N2C=C1 (stereo not drawn)	.	2.4	1	1%	1
Cc1ccc(-n2nnnc2SCC(=O)Nc2ccccc2N2CCCCC2)cc1C	-36	.	7	-1%	2
COC(C(=O)N/N=C(\C)CC(=O)Nc1ccc(N(C)C)cc1)c1ccccc1 (stereo not drawn)	.	-4.6	-16	0%	9
O=C(CSc1nnc(CNC(=O)c2ccc(F)cc2)o1)NCc1ccccc1Cl	.	1.2	.	.	?
C=CCC1Cc2c(cccc2[N+](=O)[O-])C(CC=C)N1 (stereo not drawn)	.	-0.4	-7	-1%	4
Cc1ccc(C(=O)Nc2ccc(C(=O)O)cc2)cc1S(=O)(=O)Nc1cccc([N+](=O)[O-])c1	.	-1.5	-6	-2%	0
Cc1ccc(C(=O)N2CC(C)OC(C)C2)cc1[N+](=O)[O-] (stereo not drawn)	.	-0.3	3	2%	-10
O=C(N/N=C/C1CC=CCC1)c1cc(Br)ccc1O (stereo not drawn)	-26	0.1	1	-4%	4
O=C(CSc1nc2ccc([N+](=O)[O-])cc2[nH]1)NC1CCCC1	-1	2.5	7	6%	-9
CCc1ccccc1NC(=S)N=Nc1c(O)n(C)c2ccc(S(=O)(=O)N3CCOCC3)cc12	-18	7.5	-6	1%	-6
COc1ccc(C(=O)COC(=O)/C=C/c2ccccc2)cc1	.	-1.0	.	.	-1
O=C(CSc1nnc(-c2ccccc2Cl)o1)N1CCCC1	.	1.7	.	.	1
O=C1OC(c2ccccc2)/C(=C(/O)c2ccccc2)C1=O (stereo not drawn)	-37	0.3	3	-4%	-7
CC(NC(=O)c1cc(-c2ccc3c(c2)OCO3)nc2ccccc12)C(C)(C)C (stereo not drawn)	-41	-0.6	-5	2%	-13
CN(C(=O)c1cc2c(s1)-c1ccccc1S(=O)(=O)C2)c1ccccc1F	.	-1.4	.	3%	0
CCC(=O)N1CCN=C1SCc1ccc(Cl)cc1	8	3.5	-1	2%	76
COc1ccc(CCNS(=O)(=O)c2c(C)nc3scc(C)n3c2=O)cc1OC	.	-1.4	.	.	2
CCCCC1NC(=S)N(C2CCCCC2)C1=O (stereo not drawn)	-15	1.5	-1	10%	6
CCc1nc2c(c(=O)[nH]1)C1(CCCC1)Cc1ccccc1-2	11	1.0	2	13%	11
CC(=O)c1cc2c(cc1NC(=O)c1ccc(C)cc1)OCO2	-25	-5.5	-5	7%	10
CCN1C(=NCc2ccc(OC)cc2)N[C@@H](CCc2ccccc2)[C@H](C(=O)NCc2ccc(OC)cc2)[C@H]1C	.	6.5	.	.	98
c1ccc2c(-c3[nH]ncc3CNCCCn3ncc4ccccc43)cccc2c1	.	-5.1	-43	-1%	-2
Cc1cccc(NC(=O)Cn2c(O)c(N=NC(N)=S)c3ccccc32)c1	.	4.8	.	8%	-8
O=C(O)C1=NN(c2c(F)c(F)cc(F)c2F)C(=O)CC1	.	0.9	.	.	6
O=C(Nc1nc(-c2ccccn2)cs1)C1CC(=O)N(c2ccc3c(c2)OCCO3)C1 (stereo not drawn)	-39	5.5	-16	17µM*	87
CCOc1ccc(NC(=S)N/N=C(\C)Cc2ccc(OC)cc2)cc1	-7	-0.1	3	39%	95
Cc1ccc(S(=O)(=O)NC(=O)NN2CCCCCC2)cc1	-24	-1.0	6	-6%	-3
CCN(CC)S(=O)(=O)c1ccc(C(=O)NC2=C(C(=O)OC)SCC2)cc1	-39	0.8	8	2%	31
O=C(Cn1cnc2c(nnn2-c2ccccc2)c1=O)NCC1CCCO1 (stereo not drawn)	20	0.3	13	-5%	-6	Arbovirus anti repeat=1
COc1ccc(C2CC(c3ccccc3)Nc3nc(NC(=O)c4cccs4)nn32)cc1 (stereo not drawn)	-3	1.5	-16	3%	22
S=c1[nH]nc(-c2cc(-c3ccccc3)n[nH]2)n1/N=C/c1ccc(Cl)cc1	.	0.7	.	-8%	-1
Cc1ccc(NC(=O)CCN2C(=O)c3ccccc3Sc3ncccc32)cc1	.	1.1	.	.	-4
CCOc1ccc(S(=O)(=O)c2c[nH]c3ccccc3c2=O)cc1	.	-1.0	.	.	1
CC(=O)N1c2ccc(S(=O)(=O)N3CCC(C(=O)N4CCN(c5ccccc5)CC4)CC3)cc2CC1C (stereo not drawn)	.	-0.1	.	.	-3
O=C(NCC1COc2ccccc2O1)C1CCCN(S(=O)(=O)c2cccc3nsnc23)C1 (stereo not drawn)	-23	-1.9	7	17%	-7
COc1ccc(NC(=S)NNC(=O)C(C)n2nc(C)c([N+](=O)[O-])c2C)cc1 (stereo not drawn)	-16	-4.0	-4	4%	.
N/C(=N\OC(=O)CCCOc1ccccc1)c1cccc([N+](=O)[O-])c1	.	-0.3	-1	59%	89
CCN1CCCC1CNS(=O)(=O)c1ccc(F)c(Cl)c1 (stereo not drawn)	.	-2.4	.	.	2
Cc1cccc(-c2cc3c(N=O)c4ccccc4c-3n[nH]2)c1	.	-0.1	-7	3%	11
O=S(=O)(O)c1cccnc1SCc1ccccc1	.	-0.3	.	.	-7
Cc1cccc(NC(=O)CCNC(=O)c2ccccc2Cl)n1	.	-1.5	.	.	-2
CCCCNC(=O)[C@H]1N2C(=O)c3c(ccc(OC)c3OC)C2SC1(C)C (stereo partly drawn)	.	2.9	.	.	-4
N#CC1=C(S)N=C(N)C(c2nc(-c3ccccc3)cs2)C12CCCC2 (stereo not drawn)	3	3.7	-13	-12%	-4

Of the compounds above, two contain a cyano group:
SMILES	YopH PTP inh	RecA splice inh	Arbovirus anti	Mtb growth	Mtb bLac sens	others
COc1ccc(CCNC(=O)COC(=O)/C=C/c2ccc(OCC#N)c(OC)c2)cc1	-12	-4.8	-7	-3%	4
N#CC1=C(S)N=C(N)C(c2nc(-c3ccccc3)cs2)C12CCCC2 (stereo not drawn)	3	3.7	-13	-12%	-4

(more compounds)
SMILES	YopH PTP inh	RecA splice inh	Arbovirus anti	Mtb growth	Mtb bLac sens	others
Cc1ccc(Oc2ncccc2/C=N/O)cc1	-33	-1.3	-3	1%	-11
COc1ccc([N+](=O)[O-])cc1N(CC(O)CN1CCOCC1)S(=O)(=O)c1ccccc1 (stereo not drawn)	.	-3.8	.	.	23
O=C(/C=C/Nc1ccc(F)cc1Br)c1ccccc1	-16	0.3	-10	6%	0
COCCCN(C(=O)c1ccco1)c1nc(-c2ccc(OC)cc2)cs1	.	5.8	.	.	96
CCOc1ccccc1NC(=O)Cn1c(=O)oc2cc(Cl)ccc21	.	-1.4	.	.	-5
Cc1ccc(/C=N/NC(=O)CSc2nc3ccccc3s2)o1	-17	-0.8	7	0%	7

Arranged by heavy-atom count (low to high): 3 of the compounds above.
SMILES	YopH PTP inh	RecA splice inh	Arbovirus anti	Mtb growth	Mtb bLac sens	others
Cc1ccc(Oc2ncccc2/C=N/O)cc1	-33	-1.3	-3	1%	-11
Cc1ccc(/C=N/NC(=O)CSc2nc3ccccc3s2)o1	-17	-0.8	7	0%	7
CCOc1ccccc1NC(=O)Cn1c(=O)oc2cc(Cl)ccc21	.	-1.4	.	.	-5
